# PD-1 reversal – activators reversing PD-1 mediated T-cell inhibition, primary screen, luminescence, primary human CD4 T cells, PD-L1 beads | AID 2316, 2010 | 29,000 tested, under 10 active | activation, % (concentration not given with the values) | CellTiter-Glo 96 h;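 active = replicate mean of 50% or more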;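 also: 0% = median vehicle wells and 100% = positive control; 100 nL library stock added to about 50 µL; numbers are from one replicate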
# MITF inhib – inhibitors of MITF, primary screen, MITF inhibitor project, cell-based, luminescence; TRPM1 promoter luciferase, 24 h; inhibition, % (concentration not given with the values); hit rate 0.28% among 37,000; AID 2240, 2010;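 active = most replicates at 85% or more, or half of them and the mean; inconclusive = half reach 85% but not the mean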;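 also: human melanocyte line stably carrying TRPM1 promoter luciferase reporter; 0% = vehicle wells and 100% = a positive control; the first replicate is given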
# Hedgehog inh – Hedgehog pathway signaling inhibitors, primary screen, luminescence, Shh-LIGHT2 cells, Gli-luciferase; inhibition, % (concentration not given with the values); hit rate 2.1% among 22,000; AID 2313, 2010; Shh-LIGHT2 Gli-luciferase reporter, 30 h;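 active = replicate mean of 65% or more; inconclusive = mean lower but half the replicates past it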;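 also: pathway switched on by Shh-conditioned medium diluted 1 in 25 in low serum; 100 nL library stock added to about 40 µL; 0% = median of neutral wells and 100% = positive control level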
# YB-1 expression – inhibitors of YB-1 gene expression, primary screen, cell-based, fluorescence | hit rate 0.37% among 30,000 | U2OS, qRT-PCR YB-1 vs CDIP delta delta Cp, 16 h; active compounds read high; zero = DMSO, each unit about twofold | delta delta Cp (YB-1 minus CDIP) (concentration not given with the values);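 active = delta delta Cp rounded down to an integer at or above 3, about 3 SD of DMSO wells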;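 also: higher means less YB-1 transcript or more CDIP transcript relative to DMSO; stock transfer was 100 nL into about 100 µL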
# Starred values were filed as active, the others as inactive; ? = inconclusive; nt = not tested or not shown. These rows are one share of the data; count on the stated rates, not on these rows.
# The line under a structure holds: Hedgehog inh	PD-1 reversal	YB-1 expression	MITF inhib
C[C@@H]1CN([C@@H](C)CO)C(=O)c2cccc(NC(=O)Nc3ccccc3)c2O[C@@H]1CN(C)S(=O)(=O)c1cccs1
  16	-1.4	-0.17	3
COc1ccc(NC(=O)N(C)C[C@H]2Oc3c(NC(=O)C4CCCCC4)cccc3C(=O)N([C@@H](C)CO)C[C@H]2C)cc1
  24	nt	0.38	-3
COc1ccc(S(=O)(=O)N(C)C[C@@H]2Oc3c(NC(=O)C4CC4)cccc3C(=O)N([C@@H](C)CO)C[C@H]2C)cc1
  -17	1.1	-0.16	-10
Cn1c(CSCc2ccccc2)c(C#N)c2ccccc21
  nt	0.1	0.097	-23
CN1CCN(CC(=O)Nc2sc3c(c2C(=O)Nc2ccccc2)CCCC3)CC1
  nt	-2.3	nt	-29
C[C@@H]1CN([C@H](C)CO)C(=O)c2cccc(NC(=O)NC3CCCCC3)c2O[C@@H]1CN(C)C(=O)Nc1ccc(C(F)(F)F)cc1
  -2	nt	-0.017	39
C[C@H](CO)N1C[C@H](C)[C@@H](CN(C)C)Oc2ccc(NS(=O)(=O)c3ccccc3)cc2C1=O
  -10	-0.5	-0.16	2
O=C(CSc1nc2cc3ccccc3cc2[nH]1)Nc1ccc(F)cc1
  nt	-7.1	nt	8
Cc1cc(C(=O)Nc2cccc3c2O[C@H](CN(C)C(=O)NC2CCCCC2)[C@@H](C)CN([C@H](C)CO)C3=O)n(C)n1
  31	nt	0.84	-5
O=C(CSc1nc2c(c(C(F)(F)F)n1)CCCC2)Nc1ccccc1
  nt	-0.4	nt	2
N#Cc1cccc2cccc(Sc3ccccc3)c12
  33	-1.7	0.17	10
COc1ccc(N(C(C)C(=O)Nc2cc(Cl)ccc2C)S(C)(=O)=O)cc1 (centres undefined)
  nt	-0.1	nt	5
COc1ccc(NC(=O)Nc2cccc3c2O[C@H](CN(C)S(=O)(=O)c2ccc(Cl)cc2)[C@@H](C)CN([C@H](C)CO)C3=O)cc1
  4	1.3	0.27	-11
C[C@H](CO)N1C[C@H](C)[C@@H](CN(C)S(=O)(=O)c2ccc(F)cc2)Oc2c(NC(=O)Nc3ccc(F)cc3)cccc2C1=O
  29	0.2	0.58	1
COc1ccccc1OCC(=O)Nc1ccccc1C(=O)N1C(C)CCCC1C (centres undefined)
  nt	0.7	nt	8
C[C@H]1CN([C@@H](C)CO)C(=O)Cc2cc(NS(=O)(=O)c3cn(C)cn3)ccc2O[C@H]1CN(C)CC1CCCCC1
  -8	1.8	0.094	-2
CN(c1ccccc1C(=O)NCC1CCCO1)S(C)(=O)=O (centres undefined)
  nt	2.3	nt	-12
Cc1ccc(S(=O)(=O)N(C)C[C@H]2Oc3c(NC(=O)NC4CCCCC4)cccc3C(=O)N([C@@H](C)CO)C[C@H]2C)cc1
  11	-3.8	-0.26	13
CS(=O)(=NS(=O)(=O)c1ccc(-c2ccccn2)s1)c1ccc(Cl)cc1 (centres undefined)
  -19	-2.1	0.13	13
C[C@H](CO)N1C[C@H](C)[C@H](CN(C)C(=O)Nc2ccc(C(F)(F)F)cc2)Oc2ccc(NS(=O)(=O)c3cn(C)cn3)cc2C1=O
  nt	2.7	-0.19	4
C[C@H](CO)N1C[C@H](C)[C@H](CN(C)Cc2ccncc2)Oc2ccc(NC(=O)c3ccncc3)cc2C1=O
  nt	-1.5	0.15	-13
COc1ccc(S(=O)(=O)Nc2cccc3c2O[C@@H](CN(C)Cc2ccc(-c4ccccc4)cc2)[C@@H](C)CN([C@@H](C)CO)C3=O)cc1
  27	-0.1	-0.52	26
Cc1c(C(=O)Nc2cnccn2)oc2ccccc12
  nt	-1.1	nt	-2
Cc1noc(C)c1NC(=O)Nc1ccc2c(c1)CC(=O)N([C@@H](C)CO)C[C@H](C)[C@@H](CN(C)S(=O)(=O)c1ccccc1)O2
  -5	0.3	0.37	-4
C[C@@H]1CN([C@H](C)CO)C(=O)c2cc(NC(=O)CCC(F)(F)F)ccc2O[C@@H]1CN(C)S(=O)(=O)c1ccccc1
  nt	-0.6	0.43	-7
Cc1ccc(-c2nnc(SCC(=O)c3cccc([N+](=O)[O-])c3)n2C)cc1
  nt	-3.5	nt	40
O=C(CCN1C(=O)/C(=C/c2ccc(Cl)cc2)SC1=S)Nc1ccccc1
  -21	0.6	-0.048	-30
C[C@H](CO)N1C[C@H](C)[C@H](CN(C)Cc2ccncc2)Oc2ccc(NS(C)(=O)=O)cc2CC1=O
  -14	-0.1	-0.032	4
C[C@H](CO)N1C[C@H](C)[C@@H](CN(C)Cc2ccncc2)Oc2c(NS(=O)(=O)c3cn(C)cn3)cccc2C1=O
  -45	nt	0.84	3
C[C@H]1CN([C@@H](C)CO)C(=O)c2cc(NC(=O)Cn3cnnn3)ccc2O[C@@H]1CN(C)S(C)(=O)=O
  nt	1.1	0.23	-10
O=C(NCc1ccccc1)/C(=C\c1ccccc1)NC(=O)c1ccccc1
  -14	-1.0	-0.18	-13
COc1ccc(-c2nc3ccccc3o2)cc1NC(=O)COc1ccc(C(C)C)cc1
  nt	2.8	nt	15
CC(C)NC(=O)N(C)C[C@@H]1Oc2ccc(NC(=O)Nc3cccc4ccccc34)cc2C(=O)N([C@@H](C)CO)C[C@H]1C
  -11	nt	-0.22	0
Cc1noc(C)c1S(=O)(=O)Nc1ccc2c(c1)C(=O)N([C@@H](C)CO)C[C@H](C)[C@H](CN(C)S(=O)(=O)c1cn(C)cn1)O2
  nt	-0.3	-0.25	-2
CC(C)NC(=O)Nc1ccc2c(c1)C(=O)N([C@@H](C)CO)C[C@@H](C)[C@H](CN(C)Cc1ccccc1)O2
  nt	2.5	0.12	3
COc1ccc(NC(=O)Nc2ccc3c(c2)C(=O)N([C@H](C)CO)C[C@H](C)[C@@H](CN(C)C(=O)NC2CCCCC2)OCCCC[C@@H](C)O3)cc1
  -5	nt	0.2	-4
C[C@@H]1CN([C@@H](C)CO)C(=O)Cc2cc(NC(=O)NC3CCCCC3)ccc2O[C@@H]1CN(C)C(=O)Nc1ccccc1
  ?	-0.3	-0.043	-5
C[C@H]1CN([C@@H](C)CO)C(=O)c2cccc(NC(=O)c3nc4ccccc4s3)c2O[C@H]1CN(C)Cc1ccc(-c2ccccc2)cc1
  5	-0.5	-0.74	-12
CC(C)(C)NC(=O)Oc1ccc(Cl)cc1
  11	0.6	-0.16	-19
C[C@@H]1CN([C@@H](C)CO)C(=O)c2cccc(NS(=O)(=O)c3ccccc3)c2O[C@@H]1CN(C)S(C)(=O)=O
  7	0.8	-0.083	-12
CC(C)C[C@H]1C(=O)N2CCC[C@H]2[C@]2(O)O[C@](NC(=O)[C@@H]3C=C4c5cccc6[nH]c(Br)c(c56)C[C@H]4N(C)C3)(C(C)C)C(=O)N12
  83*	nt	0.28	73
O=C(COC(=O)c1ccc(Br)cc1)c1ccc(Br)cc1
  nt	0.8	-0.33	2
Cc1noc(C)c1NC(=O)Nc1ccc2c(c1)C(=O)N([C@H](C)CO)C[C@H](C)[C@H](CN(C)C(=O)c1ccccc1)OCCCC[C@@H](C)O2
  -14	0.5	0.2	12
C[C@H]1CN([C@@H](C)CO)C(=O)c2cccc(NC(=O)Nc3ccccc3)c2O[C@H]1CN(C)Cc1ccc2c(c1)OCO2
  -19	1.6	0.027	-6
Nc1nc(SCC(=O)NCC2CCCO2)[nH]c(=O)c1-c1ccccc1 (centres undefined)
  nt	2.0	nt	3
C[C@H]1CN([C@@H](C)CO)C(=O)c2cccc(NC(=O)c3cnccn3)c2O[C@@H]1CN(C)Cc1ccncc1
  23	3.4	-0.031	-2
COc1ccc(C(=O)CSc2nnc(-c3ccccc3)n2-c2ccccc2)cc1
  nt	3.9	nt	3
CNC[C@@H]1Oc2c(NC(=O)Nc3cccc4ccccc34)cccc2C(=O)N([C@@H](C)CO)C[C@H]1C
  -7	nt	0.14	-1
Cc1ccc(-c2nnc(SCC(=O)c3ccc([N+](=O)[O-])cc3)o2)cc1
  nt	-1.5	nt	-7
COc1ccc(CN(C)C[C@@H]2Oc3ccc(NC(=O)Nc4ccc(F)cc4)cc3C(=O)N([C@H](C)CO)C[C@H]2C)cc1
  nt	nt	-0.58	5
COc1cc(C(=O)OCc2ccc(-c3cccc(Cl)c3Cl)o2)cc(OC)c1OC
  nt	1.4	nt	-34
C[C@H](CO)N1C[C@H](C)[C@H](CN(C)Cc2ccc(-c3ccccc3)cc2)Oc2ccc(NC(=O)CCCN(C)C)cc2C1=O
  10	0.0	-0.026	-4
Cn1c(SCC(=O)Nc2ccc3c(c2)oc2ccccc23)nc2ccccc2c1=O
  nt	2.4	nt	43
C[C@@H]1CN([C@@H](C)CO)C(=O)Cc2cc(NC(=O)CCN3CCOCC3)ccc2O[C@@H]1CN(C)C(=O)Nc1ccc(C(F)(F)F)cc1
  -31	nt	0.24	-2
CC(C)NC(=O)N(C)C[C@@H]1Oc2ccc(NC(=O)CCN3CCOCC3)cc2CC(=O)N([C@H](C)CO)C[C@@H]1C
  nt	-0.4	0.47	-6
COc1ccccc1NC(=O)CSc1nc(-c2ccccc2)cc(=O)[nH]1
  nt	-0.3	nt	-2
C[C@@H]1CN([C@H](C)CO)C(=O)Cc2cc(NS(C)(=O)=O)ccc2O[C@H]1CN(C)Cc1ccc(C(F)(F)F)cc1
  19	-2.5	0.056	5
C[C@@H]1CN([C@H](C)CO)C(=O)Cc2cc(NC(=O)NC3CCCCC3)ccc2O[C@@H]1CN(C)Cc1ccc(Cl)c(Cl)c1
  13	-8.5	0.27	27
C[C@@H]1CN([C@H](C)CO)C(=O)c2cccc(NC(=O)c3ccc(-c4nccs4)cc3)c2O[C@H]1CN(C)S(C)(=O)=O
  -2	0.5	0.083	-7
C[C@@H]1CN([C@H](C)CO)C(=O)c2cccc(NC(=O)c3cnccn3)c2O[C@H]1CN(C)Cc1ccc2c(c1)OCO2
  -9	-1.8	-0.21	2

# Carrying on.
# The line under a structure holds: Hedgehog inh	PD-1 reversal	YB-1 expression	MITF inhib
C[C@H]1CN([C@@H](C)CO)C(=O)c2cccc(NC(=O)C3CC3)c2O[C@@H]1CN(C)Cc1ccc(C(=O)O)cc1
  -38	2.7	-0.49	-3
O=C(Cc1ccccc1[N+](=O)[O-])Nc1cc(Cl)ccc1Oc1ccccc1
  nt	-3.5	nt	2
CC1(C)C(=O)C=C[C@@]2(C)C1CC(=O)[C@@]1(C)C3=CC(=O)O[C@@H](c4ccoc4)[C@]3(C)CCC12 (some centres undefined)
  -25	nt	0.14	12
C[C@@H]1CN([C@H](C)CO)C(=O)c2cccc(NC(=O)Nc3ccc(C(F)(F)F)cc3)c2O[C@@H]1CN(C)S(=O)(=O)c1ccc(Cl)cc1
  4	-6.7	-1	66
COc1ccc(NC(=O)N(C)C[C@H]2Oc3ccc(NC(=O)C4CCCCC4)cc3CC(=O)N([C@@H](C)CO)C[C@@H]2C)cc1
  19	-0.9	-0.021	4
COc1ccc(NC(=O)N(C)C[C@@H]2Oc3ccc(NC(=O)Cc4ccccc4)cc3C(=O)N([C@H](C)CO)C[C@@H]2C)cc1
  nt	nt	0.057	1
COc1ccc(NC(=O)Nc2cccc3c2O[C@@H](CN(C)C(=O)Nc2ccc(C(F)(F)F)cc2)[C@H](C)CN([C@H](C)CO)C3=O)cc1
  -79	nt	0.46	7
C[C@H](CO)N1C[C@H](C)[C@H](CN(C)Cc2ccc(Oc3ccccc3)cc2)Oc2c(NS(=O)(=O)c3ccc(Cl)cc3)cccc2C1=O
  10	-2.5	0.023	13
C[C@@H]1CN([C@@H](C)CO)C(=O)c2cccc(NC(=O)Nc3ccc(C(F)(F)F)cc3)c2O[C@@H]1CN(C)Cc1ccc(C(=O)Nc2ccccc2N)cc1
  nt	-5.8	-1	-28

# A draw from above in order of length of the SMILES, smallest number first:
# The line under a structure holds: Hedgehog inh	PD-1 reversal	YB-1 expression	MITF inhib
O=C(Cc1ccccc1[N+](=O)[O-])Nc1cc(Cl)ccc1Oc1ccccc1
  nt	-3.5	nt	2
C[C@H]1CN([C@@H](C)CO)C(=O)c2cccc(NC(=O)C3CC3)c2O[C@@H]1CN(C)Cc1ccc(C(=O)O)cc1
  -38	2.7	-0.49	-3
COc1ccc(NC(=O)Nc2cccc3c2O[C@@H](CN(C)C(=O)Nc2ccc(C(F)(F)F)cc2)[C@H](C)CN([C@H](C)CO)C3=O)cc1
  -79	nt	0.46	7
C[C@@H]1CN([C@H](C)CO)C(=O)c2cccc(NC(=O)Nc3ccc(C(F)(F)F)cc3)c2O[C@@H]1CN(C)S(=O)(=O)c1ccc(Cl)cc1
  4	-6.7	-1	66

# Assay outcomes: PubChem BioAssay, Broad Institute
